# Screening results deposited in PubChem BioAssay by several laboratories.
# Arbovirus inh = antivirals against arbovirus infection, primary screen, cell-based, full library, 10K replicate subset; actives 0.37% (n = 200,000); inhibition, % at 10 µM; AID 1251, 2008; arbovirus infection cell-based antiviral screen;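 active = inhibition from about 30%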;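 note: bluetongue infection of BSR cells; cell survival read as ATP light after 72 h; 0% = infected wells without compound and 100% = uninfected wells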
# RecA intein inh = Mtb RecA intein splicing inhibitors, primary screen, biochemical, fluorescence, HTS; Protein RecA (Mycobacterium tuberculosis (strain ATCC 25618 / H37Rv)), P9WHJ3; cell-free RecA intein splicing; inhibition, %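 (about 9 µM by stock and volumes)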; actives 0.75% (n = 290,000); AID 2221, 2009; in the data active = inhibition above about 30%; inconclusive = no clear call, values can overlap the other calls;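 note: 0% = vehicle wells and 100% = reference inhibitor control wells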
# Target sequence (P9WHJ3 whole entry, looked up): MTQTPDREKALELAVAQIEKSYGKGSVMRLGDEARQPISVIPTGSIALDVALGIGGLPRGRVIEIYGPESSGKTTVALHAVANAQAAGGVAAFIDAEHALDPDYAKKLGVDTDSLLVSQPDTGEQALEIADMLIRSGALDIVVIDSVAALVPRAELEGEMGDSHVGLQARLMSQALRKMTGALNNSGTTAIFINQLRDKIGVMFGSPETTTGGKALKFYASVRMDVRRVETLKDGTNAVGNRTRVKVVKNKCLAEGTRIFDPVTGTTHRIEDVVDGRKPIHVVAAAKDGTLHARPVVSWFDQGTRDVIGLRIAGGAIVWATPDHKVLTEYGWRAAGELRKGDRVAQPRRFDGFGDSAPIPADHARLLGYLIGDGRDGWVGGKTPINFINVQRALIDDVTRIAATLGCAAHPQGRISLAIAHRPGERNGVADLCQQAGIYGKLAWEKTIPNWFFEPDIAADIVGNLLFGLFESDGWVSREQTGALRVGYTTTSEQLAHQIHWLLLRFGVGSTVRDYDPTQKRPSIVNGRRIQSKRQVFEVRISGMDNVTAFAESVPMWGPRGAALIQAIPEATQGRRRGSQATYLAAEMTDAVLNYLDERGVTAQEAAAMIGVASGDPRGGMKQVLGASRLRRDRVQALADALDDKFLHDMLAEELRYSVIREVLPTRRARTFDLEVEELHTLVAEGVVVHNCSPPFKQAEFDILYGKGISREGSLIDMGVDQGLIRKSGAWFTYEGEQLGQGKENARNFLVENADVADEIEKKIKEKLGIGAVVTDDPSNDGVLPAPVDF
# Mtb bLac sens = beta-lactam sensitization of Mtb H37Rv, H37Rv; M. tuberculosis H37Rv growth with meropenem, percent inhibition; hits of this screen are not shown here; actives 0.27% (n = 330,000); AID 434955, 2010; inhibition, % at 25 µM;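 active = about 74% or more and at least 40 points above the plate without the antibiotic, then above 30% in a dose series; inconclusive = first-round hits that could not be retested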;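 note: growth measured after seven days incubation then overnight dye step; 0% = bacteria only wells and 100% = bacteria with antibiotic; twin plates without the antibiotic show which effects depend on it; some results filed as inactive read as strong as hits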
# Mtb growth = M. tuberculosis H37Rv growth inhibitors, H37Rv strain (AID 1626). M. tuberculosis H37Rv growth inhibition; higher % means a stronger effect. one-dose inhibition, % at 10 µM; IC50 in µM for titrated hits. actives 0.95% (n = 220,000);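 active = confirmed in a dose series; inconclusive = inhibition above 80% but not taken into the dose series; inactive = below 80% or under 30% at every dose of the series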;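 note: bacteria incubated seven days before Alamar blue readout; 0% = bacteria only wells and 100% = bacteria with antibiotic wells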
# YopH PTP inh = YopH tyrosine phosphatase inhibitors, primary screen, biochemical, fluorescence Ex485/Em525 | YopH tyrosine phosphatase [Yersinia enterocolitica] | inhibition, %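 (about 10 µM by stock and volumes)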 | actives 0.16% (n = 140,000) | AID 898, 2007;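 active = inhibition of 50% or more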;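 note: controls were vehicle for no effect and minimum signal wells for full effect; inactives centre near -20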
# Arbovirus inh repeat = also measured in Arbovirus inh; calls as there; inhibition, %; measured here: 10K subset replicate screen; many hits read low in the repeat;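 first of two repeat runs on a subset; 0% = infected and 100% = uninfected wells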
# Numbers without * were called inactive; ? = inconclusive; / = no result given.
SMILES,Arbovirus inh,RecA intein inh,Mtb bLac sens,Mtb growth,YopH PTP inh,others
CCc1ccc(NC(=O)C2CCCN(S(=O)(=O)c3ccc4[nH]c(=O)ccc4c3)C2)cc1 (stereo not given),/,-0.4,-1,/,/,
Cn1ccnc1C(OC(=O)c1ccccc1)C(F)(F)F (stereo not given),/,5.2,6,/,/,
Cc1nc2nc(SCC(=O)O)nn2c(C)c1Cc1c(F)cccc1Cl,-2,-0.8,-2,-3%,/,
COCCN1C(=O)c2oc3ccccc3c(=O)c2C1c1cccc(O)c1 (stereo not given),-4,-0.1,0,-2%,-49,Arbovirus inh repeat=2
Cc1cc2c(cc1S(=O)(=O)Nc1c(C)cccc1C)n(C)c(=O)c(=O)n2C,/,-0.4,0,/,/,
CCCc1[nH]nc2c1C(/C(C)=C/c1ccccc1)C(C#N)=C(N)O2 (stereo not given),0,7.3,9,-2%,-4,
CCN1CCC2(CC1)C(C#N)=C(N)Oc1c2sc2nc(C)cc(C)c12,-9,2.1,-15,-7%,-47,
CC(=O)N1C(=O)C(=C2C=C(C)OC(C)=C2)c2ccccc21,-9,-20,-2,0%,-26,
Cc1cccc(NC(=O)NCCc2c[nH]c3ccccc23)c1,-5,3.7,0,-8%,-131,
CCOc1cc(CNCCO)c(Cl)cc1OCC(=O)NCCc1ccccc1,-1,0.8,46,3%,-27,
CC(C)(C)NC(=O)C(OC(=O)c1ccco1)c1ccc(Cl)cc1 (stereo not given),/,-2.7,-14,/,/,
COc1ccc(/C=C2/C(=O)NC(=O)N(c3ccccc3)C2=O)cc1CN1C(=O)c2ccccc2C1=O,/,0.9,0,-8%,/,
COc1ccc(CCn2c(C(C)C)nc3c(c(=O)c4ccccc4n3C)c2=O)cc1,-31,2.4,21,77%,-13,
COc1c(S(=O)(=O)N2CCN(c3ccc(F)cc3)CC2)ccc(Cl)c1Cl,7,4.0,-5,-7%,-19,
COc1ccc(NC(=S)Nc2ccccc2F)c(OC)c1,1,1.4,7,-5%,-46,
CC1(C)CC2CC(C)(CN2/C=C2/CCCCC2=O)C1 (stereo not given),/,-4.0,-1,-4%,/,
CC(C)CCn1c(S(=O)(=O)O)nc2ccccc21,4,-2.3,4,1%,-30,
CCCCn1c(SCC(N)=O)nc2ccc(N3CCOCC3)cc2c1=O,-2,-18,-12,-8%,-21,
S=c1[nH]nc(NCCc2ccccc2)s1,-8,-6.0,-6,-4%,/,
CC(C)(C)c1cc(CCC(=O)NNC(=O)c2ccco2)cc(C(C)(C)C)c1O,5,-1.1,-2,6%,-22,
CSCC(=O)N1CCC(n2nccc2NC(=O)CCc2ccccc2)CC1,/,4.5,-3,/,/,
Cc1cc([N+](=O)[O-])ccc1NCc1ccc2ccccc2c1,4,2.3,-3,4%,-27,
COC(=O)c1ccc2c(=O)[nH]c(CSc3nnc(C(F)(F)F)n3C)nc2c1,2,-2.4,-6,-7%,-43,
O=C(NCCN1CCOCC1)c1ccc2c(c1)N(Cc1c(F)cccc1Cl)C(=O)c1ccccc1S2,-19,1.6,-3,-2%,/,
CCCCN(C(=O)c1[nH]c(C)c(C(=O)OCC)c1C)c1c(N)n(CCCC)c(=O)[nH]c1=O,/,-1.3,5,/,/,
COc1ccc(C(O)C(CC(=O)NCCCOC(C)C)C(=O)NCCCOC(C)C)cc1OC (stereo not given),1,-0.2,2,0%,-30,
COC(=O)Cc1n[nH]c(=O)c2ccccc12,8,2.4,9,-4%,-4,
O=C(CCN1C(=O)C2C3C=CC(C3)C2C1=O)Nc1ccc2ncccc2c1 (stereo not given),4,2.4,6,-1%,-40,
COc1cc2c(C(=O)O)c(C)n(C)c2c2ccccc12,/,-2.1,2,/,/,
CCCNC(=O)Nc1ccc(C(F)(F)F)cc1,-1,3.1,-1,4%,/,
O=c1c(Cc2c(F)cccc2Cl)c(O)ccn1CCc1ccccn1,1,-1.4,3,-6%,/,
Cc1ccc(CN2C(=NC(=O)CCC(=O)O)SC3CS(=O)(=O)CC32)cc1 (stereo not given),/,-0.4,4,-9%,/,
CN(C(=O)CCN1C(=O)/C(=C/c2ccccc2)SC1=S)C1CCS(=O)(=O)C1 (stereo not given),/,0.4,0,/,/,
Cc1cc(Nc2ccc(C(C)C)cc2)n2ncnc2n1,2,1.8,?,9%,-31,Arbovirus inh repeat=-4
CCCCn1cnc(C(=O)OCC)c1N,0,/,1,1%,-17,
COc1ccc(N(CC(=O)N/N=C/c2ccco2)S(=O)(=O)c2ccccc2)cc1,-2,3.7,-7,-2%,-39,
CCC(Sc1nccn1C)C(=O)Nc1cccc2ccccc12 (stereo not given),-3,0.7,-8,1%,-11,
CCCCCCn1c(O)c(C=NCCN2CCOCC2)c(=O)[nH]c1=O,11,-0.2,-2,11%,-10,
COC(=O)c1ccc(NC(=O)CSc2ccccn2)cc1,-4,-0.3,63,3%,-11,
Cn1nc(C(F)(F)F)c(C(=O)Nc2ccc(F)cc2F)c1Sc1cccc(Cl)c1,-5,2.1,/,-1%,-7,
Cn1c(N)c(C(=O)COC(=O)CCC2CCCC2)c(=O)n(C)c1=O,-1,1.0,-2,3%,/,
COCCCNC(=S)NNC(=O)c1ccccn1,-15,-3.4,4,5%,/,
S=C(NCCCCc1ccccc1)NCc1ccccc1,/,7.8,-1,/,/,
CCOc1ccc(NC(=S)N2CCN(S(=O)(=O)c3ccc(C)cc3)CC2)cc1,/,-0.7,1,/,/,
CC(C)N1CCc2c(sc(NC(=O)c3ccc(S(=O)(=O)N4CCOCC4)cc3)c2C(N)=O)C1,-1,-4.6,-4,27%,29,Arbovirus inh repeat=-5
CC(=O)c1ccc(NC(=S)NC(=O)Cc2ccc(Cl)cc2)cc1,/,-0.3,0,/,/,
COc1cc(/C=C(/C(=O)c2cccs2)c2nc3ccccc3[nH]2)cc(OC)c1O,-38,0.1,29,-6%,-12,
CC1CN(S(=O)(=O)c2cccc(C(=O)Nc3ccccc3N3CCCCC3)c2)CC(C)O1 (stereo not given),/,18,3,/,/,
CCOc1ccc(NC(=O)c2ccc(-n3cccn3)nc2)cc1,-3,-6.0,-8,55%,/,
COc1ccc(-c2csc(C3=C(O)CN(C(C)C)C3=N)n2)cc1OC,7,0.6,1,7%,/,
Cc1ccc(NC(=O)NNC(=O)c2cccs2)cc1,4,-0.7,2,-1%,-6,
Cc1onc(-c2ccccc2)c1C(=O)N1CCCc2ccccc21,-6,-1.0,5,2%,-43,
CCN(CC)S(=O)(=O)N1CCC(C(=O)NC2CCCC2)CC1,8,-3.3,-13,-1%,-49,
CC(Oc1ccc2oc3ccccc3c2c1)C(=O)NC12CC3CC(CC(C3)C1)C2 (stereo not given),-15,15,81,45µM*,-13,
Cc1ccc(CNCc2cccnc2)s1,-5,0.1,10,-10%,/,
CN1CCN(NC(=O)c2cccc3ccccc23)CC1,2,0.7,1,10%,-8,
CN1C(=O)C(C)(C)c2cc(S(=O)(=O)NCC3CCC(C(=O)NC4CCCCC4)CC3)ccc21 (stereo not given),/,-0.4,0,/,/,
CCCOc1ccc(N2C(=O)CC(N(CCc3ccc(OC)c(OC)c3)C(=O)c3ccccc3)C2=O)cc1 (stereo not given),/,-1.5,-6,0%,/,
Cc1ccc(C(C(=O)NC(C)(C)C)N(Cc2cccs2)C(=O)c2csnn2)cc1 (stereo not given),/,4.5,-4,-4%,-7,
COc1ccc(CNC(=O)Nc2ccc(OC)cc2)cc1,0,-0.4,-1,11%,-10,

# A draw from above in order of molar mass, low to high.
SMILES,Arbovirus inh,RecA intein inh,Mtb bLac sens,Mtb growth,YopH PTP inh,others
Cc1ccc(NC(=O)NNC(=O)c2cccs2)cc1,4,-0.7,2,-1%,-6,
CCOc1ccc(NC(=O)c2ccc(-n3cccn3)nc2)cc1,-3,-6.0,-8,55%,/,
Cc1onc(-c2ccccc2)c1C(=O)N1CCCc2ccccc21,-6,-1.0,5,2%,-43,
COc1ccc(-c2csc(C3=C(O)CN(C(C)C)C3=N)n2)cc1OC,7,0.6,1,7%,/,
CC(Oc1ccc2oc3ccccc3c2c1)C(=O)NC12CC3CC(CC(C3)C1)C2 (stereo not given),-15,15,81,45µM*,-13,
CC(C)N1CCc2c(sc(NC(=O)c3ccc(S(=O)(=O)N4CCOCC4)cc3)c2C(N)=O)C1,-1,-4.6,-4,27%,29,Arbovirus inh repeat=-5

# Random excerpt: two entries already listed
SMILES,Arbovirus inh,RecA intein inh,Mtb bLac sens,Mtb growth,YopH PTP inh,others
COc1cc(/C=C(/C(=O)c2cccs2)c2nc3ccccc3[nH]2)cc(OC)c1O,-38,0.1,29,-6%,-12,
CN1C(=O)C(C)(C)c2cc(S(=O)(=O)NCC3CCC(C(=O)NC4CCCCC4)CC3)ccc21 (stereo not given),/,-0.4,0,/,/,

# For convenience, some entries already given.
SMILES,Arbovirus inh,RecA intein inh,Mtb bLac sens,Mtb growth,YopH PTP inh,others
CCCOc1ccc(N2C(=O)CC(N(CCc3ccc(OC)c(OC)c3)C(=O)c3ccccc3)C2=O)cc1 (stereo not given),/,-1.5,-6,0%,/,
Cc1ccc(C(C(=O)NC(C)(C)C)N(Cc2cccs2)C(=O)c2csnn2)cc1 (stereo not given),/,4.5,-4,-4%,-7,
COc1ccc(CNC(=O)Nc2ccc(OC)cc2)cc1,0,-0.4,-1,11%,-10,

# Carrying on:
SMILES,Arbovirus inh,RecA intein inh,Mtb bLac sens,Mtb growth,YopH PTP inh,others
O=C(Nc1ccccc1F)Nc1ccc([N+](=O)[O-])cc1Cl,4,1.1,-1,-2%,/,
O=C(CCNC(=O)C1CCN(S(=O)(=O)c2ccccc2)CC1)NCc1ccc(Cl)c(Cl)c1,/,-0.1,-7,/,/,
COCCNC(C(=O)Nc1ccc(C)cc1[N+](=O)[O-])c1ccccc1 (stereo not given),-1,-2.1,/,1%,/,
CC(=O)c1c(C)[nH]c(C(=O)OCC(=O)Nc2cc(S(=O)(=O)N3CCCCC3)ccc2C)c1C,-3,0.1,-8,6%,-26,
NS(=O)(=O)c1ccc(NC(=O)c2cccc3ccccc23)cc1,/,-0.8,-1,/,/,
CCCOc1ccccc1C1NC(=O)NC(C)=C1C(=O)OCc1ccccc1 (stereo not given),2,-1.3,-8,-10%,-15,
COc1ccc(NC(=O)c2sc(-c3ccccc3)nc2C)c(OC)c1,/,-1.5,0,/,/,
COC1CCCN(C(=O)c2ccc(OC3CCN(S(=O)(=O)N(C)C)CC3)cc2)C1 (stereo not given),/,-4.1,-7,/,/,
O=C(NCc1ccccn1)c1cc(-c2ccc(Cl)cc2)oc1C(F)(F)F,/,6.0,3,-1%,/,
Cc1ccc2nc(NC(=O)c3ccc(-c4nc5ccccc5s4)s3)sc2c1,-25,/,14,/,-19,
COCCNC(=O)c1ccccc1-c1ccccc1C(=O)O,-5,-0.4,-4,4%,-35,
CCC(C)NC(=O)C1=C(C)C(=O)OC12CCC(C)CC2 (stereo not given),3,-5.6,-4,-2%,-9,
COc1cc(-c2noc(C)c2/C=C/c2cccc([N+](=O)[O-])c2)cc(OC)c1OC,/,10,-2,/,/,
O=C1/C(=C/c2ccccc2)CCCc2ccccc21,0,12,1,0%,22,
NC(=O)c1ccsc1NC(=O)COC(=O)c1cc(=O)[nH]c2ccccc12,/,-1.3,-11,/,/,
COc1ccccc1C(=O)NC(CCSC)C(=O)OC(C)C(=O)NC1CC1 (stereo not given),/,-0.3,1,/,/,
CCOC(=O)c1cccc(C(=O)Nc2nc3ccc(OC)cc3s2)n1,-1,0.2,97,64%,/,

# The list is partial; rates above refer to the full screens.
